Screening results (PubChem)
miR-21 reporter: miR-21 reporter, rising signal; HeLa miR-21 FLuc reporter, luciferase, 48 h; 340,000 tested, under 10 active; Potency, µM (top dose mostly 38.3 µM), without a hit: top-dose reporter change, positive = more light; AID 2288; active = well fitted rising curve with a large enough effect; inconclusive = small, poorly fitted or top-dose-only effect; inactive = no such curve, though single readings can be large or run the other way;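 further: % of control where 0% means no effect; miR-21 action dims this reporter so a rising signal means less miR-21 action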
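HeLa miR-21-FLuc reporter line, endogenous miR-21; 2000 cells/well in DMEM/10% FBS; compound titration up to ~40uM final, 48 h, 37 degree Celsius; luciferase detection reagent, 15 min lysis, CCD luminescence.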
Rango complex inh: prevents formation of the Rango-importin beta complex; Q14974; Rango CFP/YFP FRET sensor + importin beta, 45 min; Potency, µM (titrated, usually from 92.2 µM), inactives show at the highest dose inhibition of complex formation; 0.031% of 340,000 active; active = rising FRET ratio curve, often small or poorly fitted; inconclusive = mostly compound fluorescence or quenching in the first reads; inactive = flat curves in all reads;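 further: potency means the concentration at half of the fitted maximal effect; 0% = DMSO wells and 100% = buffer wells lacking importin beta; nearly all actives have a fitted effect of over 15% in size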
Target sequence (Q14974 whole entry, looked up): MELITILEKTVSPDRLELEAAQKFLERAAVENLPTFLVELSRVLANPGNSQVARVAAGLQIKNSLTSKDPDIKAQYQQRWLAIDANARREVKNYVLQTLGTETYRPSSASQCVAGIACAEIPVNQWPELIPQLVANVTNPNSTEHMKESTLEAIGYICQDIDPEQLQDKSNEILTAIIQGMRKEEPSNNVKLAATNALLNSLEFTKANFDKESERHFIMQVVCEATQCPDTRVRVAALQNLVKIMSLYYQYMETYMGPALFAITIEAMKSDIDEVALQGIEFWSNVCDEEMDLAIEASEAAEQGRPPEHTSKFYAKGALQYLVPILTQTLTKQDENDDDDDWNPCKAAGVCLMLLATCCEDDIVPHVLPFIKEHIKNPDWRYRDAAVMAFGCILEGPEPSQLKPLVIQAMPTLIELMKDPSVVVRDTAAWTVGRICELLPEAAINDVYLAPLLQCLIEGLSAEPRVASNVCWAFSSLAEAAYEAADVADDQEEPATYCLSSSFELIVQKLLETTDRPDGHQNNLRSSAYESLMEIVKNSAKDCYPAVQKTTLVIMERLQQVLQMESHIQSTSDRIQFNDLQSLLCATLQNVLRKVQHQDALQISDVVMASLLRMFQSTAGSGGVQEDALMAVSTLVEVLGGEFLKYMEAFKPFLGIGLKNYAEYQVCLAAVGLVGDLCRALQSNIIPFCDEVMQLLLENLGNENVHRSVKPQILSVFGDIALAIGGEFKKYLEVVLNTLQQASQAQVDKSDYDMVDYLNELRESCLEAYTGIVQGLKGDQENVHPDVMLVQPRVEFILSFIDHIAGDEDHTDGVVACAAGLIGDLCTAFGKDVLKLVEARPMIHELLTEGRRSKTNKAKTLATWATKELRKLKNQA
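FRET biosensor Rango (snurportin 1 IBB between N-terminal EYFP and C-terminal Cerulean), 50 nM in PBS/1 mM DTT/0.02% Tween-20/0.1% BSA, preincubated 5 min RT with compound; 0.125 microM importin beta added, 45 min RT, CFP/YFP FRET ratio read.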
Rango dissoc inh: inhibitors of RanGTP-induced Rango-importin beta complex dissociation. O95149+P62826. Potency, µM (titrated, usually from 46.1 µM), for inactives: at the highest dose activity change, negative = inhibition. 0.071% of 340,000 active. Biochemical FRET Rango-importin beta, RanGTP-induced dissociation. AID 540253; active means falling FRET ratio curve, often poorly fitted, with flat reads before Ran was added; inconclusive means other falling curves, or compound fluorescence or quenching; inactive means flat or rising ratio curve;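 further: potency means the concentration at half of the fitted maximal effect; % of control where 0% means no effect; nearly all actives have a fitted effect of over 45% in size; -100% = wells without RanGTP and RCC1; the record marks most hits as doubtful in a second field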
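Rango FRET biosensor (snurportin-1 IBB flanked by N-terminal EYFP and C-terminal CFP10) at 0.1 uM, with 0.25 uM importin beta in PBS, 1mM DTT, 0.02% Tween-20, 0.1% BSA. 0.6 uM Ran, 2mM GTP and 0.2 uM RCC1 were then added for 45 min at room temperature. Inhibition read as loss of FRET rise.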
GLA inh pH 4.5: alpha-galactosidase A (human) inhibition, pH 4.5; 230,000 tested, under 10 active; purified enzyme, 4-MU-alpha-Gal fluorescence, pH 4.5; activity change, negative = inhibition, % at 105 µM; P06280; inconclusive = small, poorly fitted or top-dose-only inhibition, or a rising curve; inactive = flat fitted curve, though single readings scatter; no compound was filed as active;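 further: 0% = full activity with enzyme and -100% = basal without enzyme; dose as in the result columns while the protocol names 77 µM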
Starred values were filed as active, the others as inactive; ? = inconclusive; nt = no result given; [ ] = remark or other dose. An excerpt, so the mix of outcomes need not match the whole.

miR-21 reporter | Rango complex inh | Rango dissoc inh | GLA inh pH 4.5 | Structure
-1% | 4.1% | -20% | nt | Cc1cc(C)n2nc(SCC(=O)NC3CCCCC3)nc2n1
-17% | -0.5% | -6% | -4 | Cc1nc(CC(=O)Nc2nc(-c3ccccc3)cs2)cs1
-5% | -2.7% | -3% | nt | COc1ccc(S(=O)(=O)NCC2CCCN(Cc3ccc(O)cc3)C2)cc1 (stereo not given)
nt | -4.7% | 4% | nt | N#Cc1c(N)[nH]c2ccc(Sc3ccccc3)cc12
-4% | ? | -17% | 3 | CCOC(=O)N1CCN(C(=O)c2cnn3c(C(F)(F)F)cc(-c4cccs4)nc23)CC1
-1% | 7.1% | 28% | 5 | CN1CCN(C(=O)c2cnn(-c3ccccc3)c2NC(=O)c2cccs2)CC1
-2% | 3.4% | -11% | 9 | Cc1nnc2ccc(N3CCOCC3)nn12
1% | -1.1% | 22% | 6 | COc1c(F)c(F)c(C(=O)Nc2cccc(Cl)c2N2CCOCC2)c(F)c1F
-44% | -3.2% | 1% | 2 | CCN1CCN(C(=O)c2ccc(-c3nc4ccccc4s3)s2)CC1
-4% | -1.6% | 12% | -10 | Cc1ccc(S(=O)(=O)n2ccc(OC(=O)c3cccs3)n2)cc1
-16% | 1.1% | -9% | -5 | COc1ccc(-n2cc(CNCC3CCOCC3)c(-c3cccc(F)c3)n2)cc1
-6% | -1.5% | 1% | 13 | COCCNC(=S)N1CCC(c2nc(-c3ccc(N(C)C)cc3)no2)CC1
15% | -0.7% | -2% | -10 | CC(C)(C)[C@@H]1C=C(C(=O)N2CCN(Cc3ccc4c(c3)OCO4)CC2)O[C@H](OCc2ccc(CO)cc2)C1
-26% | -0.4% | 11% | 3 | NS(=O)(=O)c1ccc(CNC(=O)CC23CC4CC(CC(C4)C2)C3)cc1
-24% | -0.4% | 30% | -25 | Nc1ccc2nc(SCc3ccc([N+](=O)[O-])cc3)sc2c1
nt | 3.6% | -1% | nt | COc1ccccc1C(=O)NCCC(=O)NCc1ccccn1
0% | -2.4% | 3% | -4 | Cc1cc(C)c(S(=O)(=O)ON2C(=O)c3ccccc3C2=O)cc1C
-3% | -1.3% | 7% | -7[21.1 µM] | CCSc1nnc(NC(=O)c2nc3nc(C)cc(C)n3n2)s1
-17% | -0.1% | -2% | nt | COc1ccc(Cl)cc1NC(=O)NCc1ccc2c(c1)OCO2
-3% | 0.9% | 3% | 17 | O=C(NCc1ccco1)c1cc(S(=O)(=O)N2CCOCC2)ccc1Cl
-5% | nt | nt | -7 | Cc1ccc(C2(c3noc(CN(C)CCCN4CCOCC4)n3)CCCC2)cc1
0% | 1.0% | -11% | nt | CCn1cc(C(=O)N[C@@H](C)C(=O)NCCCO)c(=O)c2cc3c(cc21)OCO3
-9% | 4.1% | 5% | 6 | Cc1cc(N2CCCC2=O)cc(C)c1CN1C(=O)c2ccccc2C1=O
1% | 2.3% | 7% | nt | CC(=O)Nc1c(-c2ccc(Cl)cc2)c(=O)c2ccccc2n1C
0% | 0.7% | -1% | -1 | CCN(CC)CCn1c(=N)n(CCO)c2ccccc21

Arranged by SMILES length (largest number first): twelve of the compounds above.
miR-21 reporter | Rango complex inh | Rango dissoc inh | GLA inh pH 4.5 | Structure
-4% | ? | -17% | 3 | CCOC(=O)N1CCN(C(=O)c2cnn3c(C(F)(F)F)cc(-c4cccs4)nc23)CC1
-26% | -0.4% | 11% | 3 | NS(=O)(=O)c1ccc(CNC(=O)CC23CC4CC(CC(C4)C2)C3)cc1
-16% | 1.1% | -9% | -5 | COc1ccc(-n2cc(CNCC3CCOCC3)c(-c3cccc(F)c3)n2)cc1
-6% | -1.5% | 1% | 13 | COCCNC(=S)N1CCC(c2nc(-c3ccc(N(C)C)cc3)no2)CC1
0% | -2.4% | 3% | -4 | Cc1cc(C)c(S(=O)(=O)ON2C(=O)c3ccccc3C2=O)cc1C
-9% | 4.1% | 5% | 6 | Cc1cc(N2CCCC2=O)cc(C)c1CN1C(=O)c2ccccc2C1=O
-4% | -1.6% | 12% | -10 | Cc1ccc(S(=O)(=O)n2ccc(OC(=O)c3cccs3)n2)cc1
1% | 2.3% | 7% | nt | CC(=O)Nc1c(-c2ccc(Cl)cc2)c(=O)c2ccccc2n1C
-3% | -1.3% | 7% | -7[21.1 µM] | CCSc1nnc(NC(=O)c2nc3nc(C)cc(C)n3n2)s1
nt | -4.7% | 4% | nt | N#Cc1c(N)[nH]c2ccc(Sc3ccccc3)cc12
0% | 0.7% | -1% | -1 | CCN(CC)CCn1c(=N)n(CCO)c2ccccc21
-2% | 3.4% | -11% | 9 | Cc1nnc2ccc(N3CCOCC3)nn12

(further entries)
miR-21 reporter | Rango complex inh | Rango dissoc inh | GLA inh pH 4.5 | Structure
1% | 6.0% | -3% | -12 | Cc1ccc(-n2cc(-c3ccccc3)c3c(N4CCN(C)CC4)ncnc32)cc1
0% | -0.1% | 1% | -2 | Cc1ccc(CC(=O)N2CCN(C(=O)c3ccco3)CC2)cc1
-19% | -0.2% | 9% | 7 | N#CCSc1nc2ccccc2c(=O)n1-c1ccccc1
1% | -0.3% | 1% | nt | Cc1ccc(-c2nnn(CC(=O)N(c3ccc(F)cc3)C(C(=O)NC3CCCC3)c3ccncc3)n2)o1 (stereo not given)
-65% | 3.9% | -10% | nt | O=C(Nc1ccccc1[N+](=O)[O-])C1COc2ccccc2O1 (stereo not given)
nt | 0.1% | 0% | nt | Cn1nc(C(=O)NC2CCC(O)CC2)c2ccccc2c1=O (stereo not given)
-28% | 0.9% | -6% | -3 | O=C(CCCOc1ccccc1)N1CCN(c2ccccn2)CC1
-1% | -0.2% | 1% | -12 | COc1ccc(CN2CCNC(=O)C2CC(=O)NCc2cnn(C)c2)cc1OC (stereo not given)
nt | -1.0% | 6% | nt | N#Cc1ccc(CN2CCN(C(=O)c3cn(Cc4ccccc4)nc3-c3cccnc3)CC2)cc1
-4% | -0.3% | 29% | -3 | O=C(OCc1ccc([N+](=O)[O-])cc1)C1CC(=O)N(c2ccccc2)C1 (stereo not given)
0% | 4.0% | -6% | -10 | CC(C)Cc1nnc(NC(=O)CSc2nc(O)c(-c3ccccc3)c(=O)[nH]2)s1
nt | -3.5% | -3% | nt | C=CCn1c(SCC(=O)N(CC)C2CCS(=O)(=O)C2)nc2scc(-c3ccccc3)c2c1=O (stereo not given)
-2% | 2.1% | -10% | -1 | CCOC(=O)CC(NC(=O)c1ccccc1F)c1ccc(C)cc1 (stereo not given)
1% | -0.1% | -14% | nt | COc1cccc(-c2cccc(NC(=O)C3CCN(C4CCOCC4)CC3)c2)c1
-1% | -6.2% | 0% | nt | CC1CCC(NC(=O)CNC(=O)Cc2cccc3ccccc23)CC1 (stereo not given)
6% | 0.1% | 1% | nt | O=C(COc1ccc(Cl)cc1)NCCS(=O)(=O)N1CCN(c2ccc(F)cc2)CC1
-40% | -1.0% | -3% | -8 | CC(C)(O)C(=O)N=Nc1c(O)[nH]c2ccccc12
-9% | ? | ? | -3 | CCOC(=O)/C=c1\s/c(=C\c2ccc3c(c2)OCCO3)c(=O)n1CC(=O)NCC1CCCO1 (stereo not given)
-44% | 1.8% | 1% | 1 | Fc1ccc(-c2cnn3c(-c4cccs4)ccnc23)cc1
nt | -3.3% | -7% | nt | O=C(c1ccco1)N1CCN(C(=O)c2ccc(-c3ccc(Cl)cc3)o2)CC1
-10% | -5.6% | -17% | 2 | CCOC(=O)N1CCN(Cc2nc3c(c(=O)n(C)c(=O)n3C)n2Cc2ccc(F)cc2)CC1
-6% | -1.6% | 4% | nt | Cc1ccc(Cl)cc1N1CCN(C(=O)C2CCC(=O)N(C3CCCCCC3)C2)CC1 (stereo not given)
-4% | -3.1% | -11% | nt | Cc1c(C(=O)NCCN(C)C)oc2ccc(S(=O)(=O)N3CCC4(CC3)OCCO4)cc12
-38% | 0.5% | -7% | nt | O=C(C1CCCCC1)N(CCN1CCCC1)c1nc2ccccc2s1
2% | -1.7% | 3% | -6 | OCCC1CN(Cc2nc3c(s2)CCCC3)CCN1Cc1ccsc1 (stereo not given)
-16% | 4.8% | -2% | -3 | Cc1cccc(OCc2nnc(SCC(=O)c3cccs3)n2C)c1C
1% | 2.1% | 0% | nt | CS(=O)(=O)c1nc(S(=O)(=O)c2ccc(Cl)cc2)c(NCCCN2CCOCC2)s1
1% | -1.4% | 0% | 3 | CSc1ccccc1C(=O)NC1CCCC1
1% | 2.4% | 10% | nt | CC(=O)c1ccc(OCCCC(=O)NC2CCCCC2C)cc1 (stereo not given)
-5% | ? | ? | 3 | O=C(c1cnn2c(C(F)(F)F)cc(-c3ccco3)nc12)N1CCCCCC1
23% | -1.5% | -9% | -13 | Cc1nc2ccc(C(C(F)(F)F)(C(F)(F)F)C(F)(F)F)cc2[nH]1
-2% | -0.1% | 9% | nt | Cc1ccccc1C(=O)NCCNC(=O)c1ccccn1
nt | 1.1% | 5% | nt | COc1ccc(-n2cnnc2SCC(=O)NC2CCCCC2)cc1
0% | -0.3% | -13% | nt | COc1ccc(CN2C(=NC(=O)C3CC3)SC3CS(=O)(=O)CC32)cc1 (stereo not given)
-2% | -2.4% | 2% | -8 | O=C(NC12CC3CC(CC(C3)C1)C2)C12CC3CC(C1)CC(n1cnc(Cl)n1)(C3)C2
nt | 2.4% | -5% | nt | CC(=O)Nc1ccc(C(=O)OCC(=O)N(c2ccccc2)C2CCS(=O)(=O)C2)cc1 (stereo not given)
-12% | 0.6% | -7% | -10 | CC(C)C(=O)Nc1ccccc1C(=O)OCC(=O)c1ccc2c(c1)OCCO2
17% | -3.7% | -23% | -3 | O=C(CN1CCCc2ccccc21)N/N=C/c1ccccc1O
1% | ? | -22% | 3 | Cc1cccc(NC2=NC3(CCCCC3)N=C(N)N2)c1C
nt | 4.0% | -10% | nt | CC1CCCC(NC(=O)CN2C(=O)NC(C)(c3cc(F)ccc3F)C2=O)C1C (stereo not given)
-8% | -6.4% | 4% | nt | COc1ccc(C2CC(c3ccccc3)=NN2C(=O)c2ccc(F)cc2)cc1 (stereo not given)
19% | ? | -1% | -18 | CC[n+]1c(/C=C/Nc2ccccc2)oc2ccccc21
8% | 0.5% | 6% | -3 | COC(=O)C1C(O)=C(C(C)=Nc2cccc3ccccc23)C(=O)CC1(C)C (stereo not given)
7% | 4.3% | -4% | 12 | C(=N\Nc1nc(N2CCCCC2)nc(N2CCCCC2)n1)/c1c[nH]c2ccccc12
-8% | -0.7% | -3% | 7 | CCN(CC)CC(=O)NCC1(c2ccccc2)CCOCC1
1% | -2.6% | ? | -9 | O=C(O)c1ccc(COc2ccc3ccccc3c2/C=C2/NC(=O)N(Cc3ccc(F)cc3)C2=O)cc1
6% | 0.0% | -4% | nt | Cc1cc(NC(=O)CCC(=O)N(CCC(C)C)C(C(=O)NC2CCCC2)c2ccccc2C)no1 (stereo not given)
-4% | -3.6% | 3% | -8 | COc1ccc(CC(=O)Nc2ccc(C(=O)Nc3nccs3)cc2)cc1OC
16% | 0.2% | -16% | -26 | CC(=O)c1ccc(Nc2cc(C)nc3c(C)cc(C)cc23)cc1
-5% | 4.8% | 5% | 5 | CC(=O)c1c(C)[nH]c(C(=O)CSc2nnc(-c3ccccc3)n2Cc2ccc3c(c2)OCO3)c1C

The list continues:
miR-21 reporter | Rango complex inh | Rango dissoc inh | GLA inh pH 4.5 | Structure
-4% | ? | -5% | nt | CCOC(=O)Nc1ccc2c(c1)N(C(=O)CNC)c1ccccc1CC2
-6% | -2.5% | 24% | 1 | COc1cc(/C=N/O)cc(Br)c1OCc1ccc(Cl)cc1
0% | -2.4% | 1% | 9 | O=C(CCc1c[nH]c2ccccc12)NCc1ccco1
-7% | 0.2% | -8% | -12 | N#Cc1c(Cn2cncn2)nc(=O)n(-c2ccc(Cl)cc2)c1N
0% | 0.9% | -3% | nt | Cc1cc(S(=O)(=O)N2CCOCC2)ccc1OCC(=O)NCCCn1ccnc1
